# Bioassay records deposited in PubChem BioAssay by National Center for Advancing Translational Sciences (NCATS).
# VACV Venus inh: vaccinia inhibition (Venus reporter); Vaccinia virus Venus reporter expression, fluorescence; Potency, µM (series often up to 36.5 µM), for the others: top-dose activity change, negative = inhibition, actives largely listed as inhibitors; 0.46% of 330,000 active; AID 720580; active means well fitted inhibition curve with a large enough effect; inconclusive means small, poorly fitted or top-dose-only effect; inactive means no such curve, though single readings can be large or run the other way; tested in A549 cells; also: nearly all actives have a fitted effect of over 30% in size; inactives centre near -10
# Vaccinia mCherry: inhibitors of vaccinia virus infection (mCherry reporter signal) | Vaccinia virus mCherry reporter infection, fluorescence; about a quarter of the inactives have no number | AID 720579 | Potency, µM (doses to about 36.5 µM), for inactives: top-dose activity change, negative = inhibition, usual class: inhibitors | 0.63% of 310,000 active; active = well fitted inhibition curve with a large enough effect; inconclusive = small, poorly fitted or top-dose-only effect; inactive = no such curve, though single readings can be large or run the other way; tested in A549 cells; also: nearly all actives have a fitted effect of over 35% in size; inactives centre near -10
# * hit, by the source's call; i = inactive; ? = inconclusive; . = no result given. % is scaled to controls: 0 for no effect and ±100 for the full control effect; potency is read from the fitted curve at half-maximal effect.
smiles	Vaccinia mCherry	VACV Venus inh
COc1ccccc1N1CC(C(=O)Nc2nnc(SCC(=O)N3CCCC3)s2)CC1=O (stereo unspecified)	-11.3%	-24.8%
CN(CC(=O)Nc1ccccc1Cl)C(=O)COC(=O)c1nc(Cl)ccc1Cl	-5.2%	-8.4%
O=C(CN1CCN(c2ncc(C(F)(F)F)cc2Cl)CC1)NC(=O)NCc1ccccc1	i	-3.0%
CSCCC(NC(=O)c1ccco1)C(=O)NC1CCCCCC1 (stereo unspecified)	-12.2%	-4.7%
CN1C(=O)CC(C(=O)Nc2ccc(C(=O)O)cc2)SC1=Nc1ccc(Cl)cc1 (stereo unspecified)	-1.3%	-0.8%
Cc1c(OCC(=O)N2C[C@H]3C[C@@H](C2)c2cccc(=O)n2C3)ccc2c3c(c(=O)oc12)CCC3	-4.3%	-6.2%
O=C(CN1C(=O)NC2(CCCC2)C1=O)OCCOc1ccc(Br)cc1	-11.8%	-3.2%
CCOc1ccccc1N(C(=O)CNS(=O)(=O)c1ccccc1)C(CC)C(=O)NCc1ccco1 (stereo unspecified)	i	-13.3%

# One compound at a time (already shown). Order of screens: Vaccinia mCherry	VACV Venus inh
# `COc1ccccc1N1CC(C(=O)Nc2nnc(SCC(=O)N3CCCC3)s2)CC1=O` (stereo unspecified) in the list: -11.3%	-24.8%
# `CN(CC(=O)Nc1ccccc1Cl)C(=O)COC(=O)c1nc(Cl)ccc1Cl` in the list: -5.2%	-8.4%

# (cont.)
smiles	Vaccinia mCherry	VACV Venus inh
COc1ccc(CCNC(=O)/C=C\c2ccccc2)cc1OC	-14.3%	-12.4%
COC(=O)c1cc(-c2ccc(OC)cc2)on1	i	-6.6%
CC(=O)N1C(=O)/C(=C2\SC(=S)N(c3c(C)n(C)n(-c4ccccc4)c3=O)C2=O)c2ccccc21	i	-10.3%
CCCCN(N=Nc1nonc1OC)c1nonc1OC	.	-15.1%
CCc1c(O)nc(SCC(=O)Nc2ccc3c(c2)CCC3)[nH]c1=O	.	-7.9%
O=C(OCc1ccc(Cl)cc1)c1cnccn1	-15.5%	-7.6%
CC(=O)c1cccc(N(C(=O)c2cnccn2)C(C(=O)NCc2ccccc2)c2ccco2)c1 (stereo unspecified)	-17.2%	-7.1%
Cc1ccc(NC(=O)NNC(=O)COc2ccc([N+](=O)[O-])cc2)cc1C	i	-23.0%
CCn1nc(C(=O)Nc2cc(Cl)ccc2-n2cncn2)c2ccccc2c1=O	i	-7.1%
O=C(c1cccnc1)N1CCCc2ccccc21	-7.6%	-4.1%
O=C(c1ccc(-n2cncn2)c([N+](=O)[O-])c1)N1CCN(S(=O)(=O)c2ccc(F)c(F)c2)CC1	-9.4%	-12.1%
Cc1cccc(Cn2c(CN3CCC(C(=O)NCCc4ccccc4)CC3)cc3ccccc32)c1	-25.9%	-19.7%
CCOC(=O)C1CCCN(C(=O)c2ccc3[nH]c4c(c3c2)CC(C)CC4)C1 (stereo unspecified)	i	-8.9%
Cc1cc(NCC(c2ccccc2)c2ccccc2)n2ncnc2n1	-5.8%	-4.1%
OC(c1ccc(F)cc1)c1nc(-c2cnc3ccccc3c2)cs1 (stereo unspecified)	i	-17.4%
O=C(Nc1ccc2c(c1)OCO2)C1CC1	i	-0.2%
O=C(Nc1nnc(C2CCCC2)s1)C1CCC1	i	-12.4%
CC/C(C)=N/Nc1ccc(S(=O)(=O)N2CCCC2)cc1[N+](=O)[O-]	-26.9%	-19.1%
CN(C)c1ccc(CNC(=O)C2CCCN(S(=O)(=O)c3ccc4c(c3)oc(=O)n4C)C2)cc1 (stereo unspecified)	2.7%	0.0%
COP(=S)(OC)Oc1ccc([N+](=O)[O-])cc1	?	?
Cc1ccc(NC(=O)CCCc2nnc3n(C)c(=O)c4sccc4n23)cc1F	-13.5%	-9.7%
C=CC1=C2C=C(C3CC3)N(C3CC3)C=C2C(=O)C(C)(OC(=O)c2ccco2)C1=O (stereo unspecified)	i	-2.4%
COc1cc2ccc(C(=O)O)cc2cc1OC	-1.7%	-12.4%
COCCNC(=O)CN(c1ccc(C)cc1)S(=O)(=O)c1ccccc1	-0.4%	-1.0%
C[n+]1c(/C=C/c2ccc(F)cc2)ccc2ccccc21	?	?
COc1cnn(-c2cccc(C(F)(F)F)c2)c(=O)c1Cl	-6.3%	2.4%
Cc1cccc(C)c1NC(=O)c1cccc(C(=O)Nc2c(C)cccc2C)n1	-7.7%	1.1%
COc1cccc(C=NN(C)c2c([N+](=O)[O-])cc(C(F)(F)F)cc2[N+](=O)[O-])c1O	25.3%	9.6%
Cc1noc(C)c1-c1nccc(-n2ccnc2)n1	-1.2%	2.5%
Cc1c[n+]([O-])ccc1Oc1ccc([N+](=O)[O-])cc1	-10.4%	-2.7%
CCC(=O)Nc1ccc(C(=O)COC(=O)CCN2C(=O)C3CC=CCC3C2=O)cc1 (stereo unspecified)	i	3.8%
COc1ccccc1CNC(=O)CCn1nc(C)c2c(C)n(-c3ccccc3)nc2c1=O	-19.2%	-16.2%
Cc1ccc(NC(=O)CCC(=O)N/N=C/c2cc([N+](=O)[O-])ccc2O)cc1	-2.9%	-16.3%
C/C(CC(c1ccccc1)c1c(O)c2ccccc2oc1=O)=N\NC(N)=S (stereo unspecified)	3.98µM*	7.94µM*
COc1cc(=O)n2c(c1C(=O)NCc1ccco1)CCN(C(=O)c1ccc(C)c(C)c1)CC2	-22.1%	-10.0%
O=C1C2C(C(=O)N1CCN1CCN(Cc3ccc([N+](=O)[O-])cc3)CC1)[C@H]1C=C[C@@H]2C1 (stereo partly specified)	i	-20.2%
COc1ccccc1NC(=O)C1CCCN(S(=O)(=O)c2ccccc2)C1 (stereo unspecified)	i	-15.8%
CCN1CCCC1CNC(=O)c1ccc(Sc2ccccc2Cl)c([N+](=O)[O-])c1 (stereo unspecified)	-15.7%	-11.0%
C#Cc1ccc([C@H]2C=C(C(=O)O)O[C@@H](OCCCCO)C2)cc1	i	-13.6%
N=C1SCC(=O)N1c1nc(-c2ccccc2)cs1	-13.3%	2.5%
Cc1ccc(NC(=S)N(CCN(C)C)Cc2cc3cccc(C)c3[nH]c2=O)cc1	-15.7%	-5.2%
CCOc1nc(NCCN2CCOCC2)nc(Nc2ccc([N+](=O)[O-])cc2)n1	i	-11.5%
O=c1c2[nH]c3ccccc3c2ncn1Cc1ccncc1	-1.3%	-8.9%
Cc1ccc(NC(=O)CSc2nnc(NC(=O)C3CC3)s2)cc1C	-3.7%	2.0%
CCOc1ccc(S(=O)(=O)N(CC(=O)NCC2CCCO2)c2ccc(F)cc2)cc1 (stereo unspecified)	-9.3%	-4.3%
COCCCN(C(=O)Nc1ccc(C)c(C)c1)C(C)c1ccccn1 (stereo unspecified)	i	-21.3%
CN(c1ccccc1)S(=O)(=O)c1cccc(NC(=O)CSc2nncs2)c1	-11.7%	-19.5%
COc1ccc(OC)c(-c2nc3ccccc3nc2-c2ccccc2)c1	-14.4%	7.3%
CN(CCc1ccccn1)C(=O)CCC1CCCN(C(=O)CCOc2ccccc2)C1 (stereo unspecified)	-8.8%	-19.8%
O=C(Nc1cc(C(=O)N2CCN(CCO)CC2)c2c(c1)ncn2C1CCCC1)c1ccccc1	-3.0%	0.0%
C=CCn1c(SCC(=O)c2ccc(O)c(O)c2)nnc1-c1ccccc1OC	-17.4%	0.0%
CCOc1cccc(/C=N/NC(=O)c2cc(-c3cccn3C)n[nH]2)c1O	?	?
COc1ccccc1NC(=O)CSc1nc(SC)ns1	-20.6%	-19.1%
CC(C#N)(CCc1ccccn1)CCc1ccccn1	-11.7%	13.3%
Cn1c(CNC(=O)c2ccccc2)nnc1SCC(=O)Nc1nccs1	-8.3%	-4.2%
Cc1ccccc1C1=C/C(=C(\SS/C(C(=O)c2ccc(OCC(=O)O)c(Cl)c2Cl)=C2\C=C(c3ccccc3C)SS2)C(=O)c2ccc(OCC(=O)O)c(Cl)c2Cl)SS1	-12.5%	-12.5%

# More results.
smiles	Vaccinia mCherry	VACV Venus inh
O=C(c1ccccc1)n1c2ccccc2c(=O)n1-c1ccccc1CCl	-15.9%	-10.3%
CC1(C(=O)O)CCC(C(=O)Nc2ccc(F)cc2)C1(C)C (stereo unspecified)	-0.7%	-6.1%
COc1cccc(/C=C/C(=O)OCC(=O)Nc2cc(C(F)(F)F)ccc2Cl)c1	i	-20.3%
O=C1CCCCC(=O)[C@H](O)C[C@H](COCc2ccccc2)O1	-2.9%	5.3%
CCCCC(=O)NCCc1c(Cc2ccccc2)[nH]c2ccccc12	i	-9.3%
COc1cc(-c2noc(C)c2C(=O)NCC[C@@H]2CCCN2C)cc(OC)c1OC	-7.0%	-9.0%
Cc1ccc(Cl)cc1N1CCN(S(=O)(=O)c2ccc3[nH]c4c(c3c2)CCCC4)CC1	0.2%	1.7%
COC(=O)[C@@]1(Cc2ccc(F)cc2)[C@H]2c3cc(C(=O)N(C)C)n(Cc4cc(F)cc5c4OCOC5)c3C[C@H]2CN1C(=O)c1ccccc1	24.9%	-6.7%
O=C(c1ccc(N2CCCC2=O)cc1)N1CCN(c2ccc(C(F)(F)F)cc2[N+](=O)[O-])CC1	-22.4%	-23.4%
Cc1cnc(C(=O)Nc2cccc3ncccc23)cn1	-14.4%	-6.9%
Brc1ccc(-c2csc3[n+]2CCCCC3)cc1	-10.1%	-1.4%
Nc1nc(O)c(Sc2ccccc2[N+](=O)[O-])c(=O)[nH]1	-14.6%	-2.9%
CCOc1ccc(Nc2c(S(=O)(=O)c3ccc(C)cc3)cnc3cc(OC)c(OC)cc23)cc1	-3.8%	-24.5%
COc1ccc(NC(=O)C2CCCN(S(=O)(=O)c3ccc4c(c3)CCCN4C(C)=O)C2)cc1Cl (stereo unspecified)	i	-2.3%
Cc1c(N(C(=O)c2cnccn2)C2(C(=O)NC3CCCC3)CCCCC2)c(=O)n(-c2ccccc2)n1C	i	-5.2%
c1cncc(-c2cn(C[C@H]3CC[C@@H]([C@@H]4CC[C@H](Cn5cc(-c6cccnc6)nn5)O4)O3)nn2)c1	i	-11.9%
Nc1ccc(S(=O)(=O)NC2(C(F)(F)F)NC(=O)N(Cc3ccccc3)C2=O)cc1 (stereo unspecified)	7.0%	1.8%
CN(Cc1ccccc1)C(=O)CN1C(=O)NC(C)(c2ccc(Cl)cc2)C1=O (stereo unspecified)	i	-14.3%
CCN(c1ncnc2c1cnn2-c1ccc(C)cc1)C1CCCCC1	-4.5%	1.0%
CCC(=O)NC(=S)Nc1cccc(C(C)=O)c1	.	3.5%
CCCCCCN1C[C@H](n2cc(-c3ccc(F)cc3)nn2)[C@@H](O)C[C@@H]1c1ccc(C)cc1	28.2µM*	?
COc1cccc(-c2csc(N3CCN(C(=O)NC45CC6CC(CC(C6)C4)C5)CC3)n2)c1	?	?
COc1ccc(CN(C)C(=O)c2ccc(NS(=O)(=O)c3ccccc3)cc2)c(OC)c1	-10.7%	-6.8%
CC(Oc1ccc(Cl)cc1Cl)C(=O)Nc1ccncc1 (stereo unspecified)	?	?
CCOC(=O)N/N=C(C)/C=C/c1ccco1	i	-4.8%
COC(=O)c1cn(C(=O)c2cc(Cl)ccc2Cl)c2ccccc12	-6.3%	-23.3%
COc1ccccc1N1CCN(C(=O)c2cc3c(=O)n(C)c4ccccc4c3s2)CC1	-27.1%	-9.9%
COc1ccc(CCN(CC(=O)NC(C)(C)C)C(=O)Cn2nnc(-c3ccc(C)o3)n2)cc1OC	i	0.6%
COc1ccc(/C=N/NC(=O)c2ccccc2OC)cc1COc1ccccc1[N+](=O)[O-]	?	?
O=C1NCCC/C1=N\Nc1ccc(Br)cc1	-20.2%	-8.0%
CCN(CC)C(=O)C1=C(C)N(Cc2ccccc2)C(=O)C(CC(=O)NCCN2CCOCC2)C1 (stereo unspecified)	-8.4%	-4.7%
CCN(CC)S(=O)(=O)c1ccc(/C=C/C(=O)OCC(=O)Nc2ccc(S(N)(=O)=O)cc2)cc1	-8.4%	0.2%
COc1ccc([C@H]2C[C@@H](O)[C@H](n3cc(-c4ccc(F)cc4)nn3)CN2CC2CCCCC2)cc1	-21.3%	-24.6%
COCc1ccc(CN2CCCC(CO)(Cc3cccc(Cl)c3)C2)o1 (stereo unspecified)	-8.5%	-5.6%
COc1ccc(C(=O)OCC(=O)N2C(C)CCCC2C)cc1[N+](=O)[O-] (stereo unspecified)	?	-4.5%
CCOC(=O)C1=C(O)/C(=C/c2cn(CC(=O)N3CCCC3)c3ccccc23)SC1=Nc1ccccc1	-11.9%	18.6%
COc1cc(/C=C/C(=O)O)cc(S(=O)(=O)Nc2ccc(F)cc2)c1OC	-12.2%	-9.1%
COc1ccc(-c2noc(CN(C(=O)c3ccc(C)cc3C)C(C)C)n2)cc1	1.4%	-0.4%
CCn1c(=O)c2sccc2n2c(CCCC(=O)N3CCN(c4cc(Cl)ccc4C)CC3)nnc12	-12.5%	-7.6%
O=C(c1ccc2c3c(cccc13)CC2)C1CCCN(Cc2cccnc2)C1 (stereo unspecified)	-3.8%	-5.8%
CC(C)c1nc(SCC(=O)Nc2ccc3c(c2)OCCO3)n[nH]1	-8.7%	-16.7%
COc1cccc(-c2nc(CS(=O)(=O)CC(=O)NCC(C)c3ccccc3)c(C)o2)c1 (stereo unspecified)	-6.0%	-16.8%
CCOC(=O)c1ccc(N2CCN(c3cccc(OC)c3)CC2)c(NC(=O)Nc2ccc(OCC)cc2)c1	-13.9%	-8.1%
